rRNA inh HTS: reduced GFP signal of wild-type E. coli, primary screen, bacterial rRNA inhibitor project, GFP/RFP fluorescence, OD600, single point. GFP signal change (wild-type ribosome), % (no concentration beside the values). E. coli WT GFP vs humanized-ribosome RFP mutants, 24 h; active compounds read low; DMSO median 0, no signal -100. hit rate 1.6% among 350,000;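 active means significant combined selectivity score with lowered wild-type GFP, culture density cut under 30%, mutant RFP and density less affected; inactive means any of these conditions unmet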; further: one replicate is shown; some compounds called inactive have numbers as strong as hits
AF4-AF9 inh: inhibitors of AF4 peptide binding to AF9, primary screen, biochemical, AlphaScreen, biotin-AF4 peptide, FLAG-AF9, single point | inhibition, % at 10 µM | hit rate 0.47% among 350,000 | Protein AF-9 (Homo sapiens), P42568;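 active means every replicate reaching a set inhibition limit, whatever the replicate mean, cut at about 25% in these data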;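 further: 0% = plate neutral control median and 100% = total signal loss; the record names both 10 and 1 µM as test concentration; the first replicate is given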
Target sequence (P42568 whole entry, looked up): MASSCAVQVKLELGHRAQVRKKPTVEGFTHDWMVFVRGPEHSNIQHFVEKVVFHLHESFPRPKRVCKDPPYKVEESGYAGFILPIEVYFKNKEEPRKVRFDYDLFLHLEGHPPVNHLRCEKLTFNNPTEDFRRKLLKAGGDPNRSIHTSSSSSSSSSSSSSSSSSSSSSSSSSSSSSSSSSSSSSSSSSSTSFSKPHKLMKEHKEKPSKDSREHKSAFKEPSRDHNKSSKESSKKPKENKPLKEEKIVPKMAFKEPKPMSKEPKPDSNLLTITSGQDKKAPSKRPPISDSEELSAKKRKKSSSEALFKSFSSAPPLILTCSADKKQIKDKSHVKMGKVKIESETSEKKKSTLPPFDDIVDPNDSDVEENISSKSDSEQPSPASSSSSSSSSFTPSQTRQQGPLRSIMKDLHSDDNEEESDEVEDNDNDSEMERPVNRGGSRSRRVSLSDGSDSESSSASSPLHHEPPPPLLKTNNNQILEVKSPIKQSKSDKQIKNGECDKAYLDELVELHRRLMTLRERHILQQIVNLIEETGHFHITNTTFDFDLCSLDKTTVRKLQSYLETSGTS
rRNA inh HTS OD600: second read-out of rRNA inh HTS, no call of its own (marks repeat the call); OD600 change, %; measured here: OD600 growth;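 optical density of the mix in the first replicate; 0 = DMSO median and -100 = no signal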
rRNA inh HTS RFP: second read-out of rRNA inh HTS, no call of its own (marks repeat the call); RFP signal change, %; measured here: RFP humanized mutant strains;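 first replicate; 0 = DMSO median and -100 = no signal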
An asterisk follows results filed as active. Only part of the results is shown; the hit share may differ from the screen's.

1: CCCNC(=O)N1CC2(CCN(C(=O)CCC)CC2)c2c(n(C)c3cc(OC)ccc23)[C@@H]1CO
2: C[C@H]1CN([C@@H](C)CO)C(=O)Cc2cc(NC(=O)c3ccncc3)ccc2O[C@@H]1CN(C)Cc1ccc(-c2ccccc2)cc1
3: COc1ccccc1NC(=O)Nc1nnc([C@@H]2C[C@H](O)[C@@H](CO)O2)s1
4: Cc1ccc(S(=O)(=O)Nc2ccc3c(c2)C(=O)N([C@H](C)CO)C[C@@H](C)[C@H](CN(C)C(=O)NC(C)C)OCCCC[C@@H](C)O3)cc1
5: C[C@@H]1CCCCO[C@@H](CN(C)S(=O)(=O)c2ccccc2)[C@H](C)CN([C@@H](C)CO)C(=O)c2cc(NS(=O)(=O)c3cccs3)ccc2O1
6: O=C(N[C@@H]1CC[C@@H](CCn2cc(Cc3ccccc3)nn2)O[C@@H]1CO)c1cnccn1
7: C[C@H](CO)N1C[C@H](C)[C@H](CN(C)C(=O)C2CCOCC2)Oc2cc(-c3ccc(C(=O)N(C)C)cc3)ccc2S1(=O)=O
8: CO[C@@H]1CN(C)C(=O)c2ccc(NS(=O)(=O)c3ccccc3C)cc2OC[C@@H](C)N(S(=O)(=O)c2ccccc2)C[C@H]1C
screen / no.	1	2	3	4	5	6	7	8
AF4-AF9 inh	5.9	-1.4	0.0	-3.0	-2.2	0.8	-3.4	13.0
rRNA inh HTS OD600	-6.8	-4.9	9.8	-4.2	-4.6	-1.9	1.6	-8.8
rRNA inh HTS RFP	-1.3	1.8	2.4	-0.7	-0.7	-2.0	-1.7	2.3
rRNA inh HTS	-3.9	1.5	8.3	-2.5	-2.3	-0.3	-1.2	-4.8

9: COCC(=O)N1C[C@@H](C)[C@H](OC)CN(C)C(=O)c2cc(NC(=O)Nc3ccccc3)ccc2OC[C@@H]1C
10: O=C(C[C@@H]1CC[C@@H]2[C@H](COC[C@@H](O)CN2C(=O)c2ccccc2)O1)NCc1cccc(F)c1
11: Cc1noc(C)c1NC(=O)N(C)C[C@@H]1Oc2ncc(C#CC3CCCCC3)cc2C(=O)N([C@@H](C)CO)C[C@H]1C
12: O=C(c1cnccn1)N1CC(=O)N2[C@@H](CO)[C@H](c3ccc(C#CCC4CCCC4)cc3)[C@@H]2C1
13: C/C=C/c1ccc([C@@H]2[C@H](CO)N(C(=O)C3CCCC3)C23CN(C(=O)NC(C)C)C3)cc1
14: C[C@@H]1CN([C@@H](C)CO)C(=O)c2cc(-c3ccc(C#N)cc3)cnc2O[C@H]1CN(C)C(=O)CN(C)C
15: COCC(=O)N1C[C@@H](C)[C@@H](OC)CN(C)C(=O)c2ccc(NC(=O)c3ccccc3)cc2OC[C@H]1C
16: COc1ccc(CN(C)C[C@H]2Oc3c(NS(C)(=O)=O)cccc3C(=O)N([C@H](C)CO)C[C@@H]2C)cc1
screen / no.	9	10	11	12	13	14	15	16
AF4-AF9 inh	-2.1	-8.7	-1.5	-4.1	2.0	-3.1	-8.7	1.6
rRNA inh HTS OD600	-3.2	-5.8	-3.2	-12.8	-0.7	1.9	-0.1	7.8
rRNA inh HTS RFP	1.3	16.2	-3.1	7.1	4.5	-2.0	0.2	-1.0
rRNA inh HTS	-0.1	-0.3	-7.2	5.0	3.6	0.6	-0.8	0.3

17: CN1C(=O)c2cc(NC(=O)Cc3cccs3)ccc2OC[C@@H]2O[C@H](CC(=O)NCC3CCCCC3)CC[C@H]21
18: O=C(Nc1ccc(F)c(Cl)c1)c1cc(C2CCCN(S(=O)(=O)c3ccccc3)C2)on1 (configuration not stated)
19: CC(=O)NC[C@@H]1[C@@H](c2ccc(C3=CCCCC3)cc2)[C@@H](CO)N1C(=O)C1CCC1
20: C[C@H](CO)N1C[C@H](C)[C@@H](CN(C)Cc2cccnc2)OCc2ccccc2-c2ccccc2C1=O
21: CC(C)CC#Cc1cnc2c(c1)C(=O)N([C@@H](C)CO)C[C@H](C)[C@@H](CN(C)C(=O)CN1CCOCC1)O2
22: Cc1ccccc1-c1ccc([C@@H]2[C@H](CO)N3CCCCN(S(=O)(=O)c4cn(C)cn4)C[C@@H]23)cc1
23: C[C@H]1CN([C@@H](C)CO)C(=O)c2cc(NS(C)(=O)=O)ccc2O[C@H]1CN(C)C
24: CCNC(=O)C1CCCN(C(=O)Cc2cccs2)CC1 (configuration not stated)
screen / no.	17	18	19	20	21	22	23	24
AF4-AF9 inh	0.7	-0.6	2.4	-2.1	-1.0	3.0	-4.8	-9.2
rRNA inh HTS OD600	-17.9	2.4	-5.6	-0.2	-6.2	1.5	-2.6	10.6
rRNA inh HTS RFP	0.6	3.1	0.1	-1.0	-3.2	-0.1	-2.1	0.1
rRNA inh HTS	-5.1	-5.1	-2.9	0.2	-0.7	2.2	0.3	19.8

12 structures out of the list, sorted by number of heavy atoms, smallest number first.
24: CCNC(=O)C1CCCN(C(=O)Cc2cccs2)CC1 (configuration not stated)
23: C[C@H]1CN([C@@H](C)CO)C(=O)c2cc(NS(C)(=O)=O)ccc2O[C@H]1CN(C)C
19: CC(=O)NC[C@@H]1[C@@H](c2ccc(C3=CCCCC3)cc2)[C@@H](CO)N1C(=O)C1CCC1
13: C/C=C/c1ccc([C@@H]2[C@H](CO)N(C(=O)C3CCCC3)C23CN(C(=O)NC(C)C)C3)cc1
10: O=C(C[C@@H]1CC[C@@H]2[C@H](COC[C@@H](O)CN2C(=O)c2ccccc2)O1)NCc1cccc(F)c1
1: CCCNC(=O)N1CC2(CCN(C(=O)CCC)CC2)c2c(n(C)c3cc(OC)ccc23)[C@@H]1CO
14: C[C@@H]1CN([C@@H](C)CO)C(=O)c2cc(-c3ccc(C#N)cc3)cnc2O[C@H]1CN(C)C(=O)CN(C)C
21: CC(C)CC#Cc1cnc2c(c1)C(=O)N([C@@H](C)CO)C[C@H](C)[C@@H](CN(C)C(=O)CN1CCOCC1)O2
9: COCC(=O)N1C[C@@H](C)[C@H](OC)CN(C)C(=O)c2cc(NC(=O)Nc3ccccc3)ccc2OC[C@@H]1C
17: CN1C(=O)c2cc(NC(=O)Cc3cccs3)ccc2OC[C@@H]2O[C@H](CC(=O)NCC3CCCCC3)CC[C@H]21
screen / no.	24	23	19	13	10	1	14	21	9	17
AF4-AF9 inh	-9.2	-4.8	2.4	2.0	-8.7	5.9	-3.1	-1.0	-2.1	0.7
rRNA inh HTS OD600	10.6	-2.6	-5.6	-0.7	-5.8	-6.8	1.9	-6.2	-3.2	-17.9
rRNA inh HTS RFP	0.1	-2.1	0.1	4.5	16.2	-1.3	-2.0	-3.2	1.3	0.6
rRNA inh HTS	19.8	0.3	-2.9	3.6	-0.3	-3.9	0.6	-0.7	-0.1	-5.1

2: C[C@H]1CN([C@@H](C)CO)C(=O)Cc2cc(NC(=O)c3ccncc3)ccc2O[C@@H]1CN(C)Cc1ccc(-c2ccccc2)cc1
5: C[C@@H]1CCCCO[C@@H](CN(C)S(=O)(=O)c2ccccc2)[C@H](C)CN([C@@H](C)CO)C(=O)c2cc(NS(=O)(=O)c3cccs3)ccc2O1
screen / no.	2	5
AF4-AF9 inh	-1.4	-2.2
rRNA inh HTS OD600	-4.9	-4.6
rRNA inh HTS RFP	1.8	-0.7
rRNA inh HTS	1.5	-2.3

Ordered by molar mass (smallest number first): 3 of the compounds above
18: O=C(Nc1ccc(F)c(Cl)c1)c1cc(C2CCCN(S(=O)(=O)c3ccccc3)C2)on1 (configuration not stated)
22: Cc1ccccc1-c1ccc([C@@H]2[C@H](CO)N3CCCCN(S(=O)(=O)c4cn(C)cn4)C[C@@H]23)cc1
21: CC(C)CC#Cc1cnc2c(c1)C(=O)N([C@@H](C)CO)C[C@H](C)[C@@H](CN(C)C(=O)CN1CCOCC1)O2
screen / no.	18	22	21
AF4-AF9 inh	-0.6	3.0	-1.0
rRNA inh HTS OD600	2.4	1.5	-6.2
rRNA inh HTS RFP	3.1	-0.1	-3.2
rRNA inh HTS	-5.1	2.2	-0.7

The list continues.
25: C[C@@H]1CN([C@@H](C)CO)C(=O)c2cc(NC(=O)C3CC3)ccc2O[C@@H]1CN(C)Cc1ccc(-c2ccccc2)cc1
26: CN1CCN(C(=O)C[C@@H]2CC[C@@H]3[C@H](COC[C@@H](O)CN3C(=O)C3CCCC3)O2)CC1
27: CCC(=O)Nc1ccc2c(c1)C(=O)N(C)[C@H]1CC[C@H](CC(=O)NCCOC)O[C@H]1CO2
28: C[C@H]1CCCCO[C@H](CN(C)C(=O)NC2CCCCC2)[C@@H](C)CN([C@@H](C)CO)C(=O)c2cc(NS(=O)(=O)c3ccc(Cl)cc3)ccc2O1
29: COc1ccc(/C=C/CN2CCC(C(=O)NC(c3ccc(F)cc3)c3ccc4ccccc4n3)CC2)cc1 (configuration not stated)
30: COc1ccccc1CNC(=O)C[C@@H]1CC[C@@H]2[C@H](COC[C@H](O)CN2Cc2ccccc2)O1
31: CO[C@H]1CN(C)C(=O)c2ccc(NC(=O)c3ccno3)cc2OC[C@@H](C)NC[C@H]1C
32: COc1ccc(CN(C)C[C@@H]2Oc3ccc(NS(=O)(=O)c4ccc(F)cc4)cc3CC(=O)N([C@H](C)CO)C[C@@H]2C)cc1
screen / no.	25	26	27	28	29	30	31	32
AF4-AF9 inh	9.7	-0.1	-2.1	1.7	13.5	-3.9	-5.4	1.7
rRNA inh HTS OD600	-73.9	17.9	3.2	-2.5	-73.1	0.5	0.2	-7.2
rRNA inh HTS RFP	-17.0	15.6	-1.6	0.5	-19.0	-1.3	2.0	2.2
rRNA inh HTS	-57.0	-0.8	0.7	1.2	-49.6	-3.2	4.3	-0.1

33: CC(C)NC(=O)Nc1ccc2c(c1)CC(=O)N([C@@H](C)CO)C[C@@H](C)[C@@H](CN(C)S(=O)(=O)c1ccc(F)cc1)O2
34: Cc1ccc(S(=O)(=O)N(C)C[C@H]2OCCCC[C@@H](C)Oc3ccc(NC(=O)CCC(F)(F)F)cc3C(=O)N([C@H](C)CO)C[C@@H]2C)cc1
35: COc1cc(CN2CC3(CN(C(=O)NC(C)C)C3)c3c(n(C)c4cc(OC)ccc34)[C@H]2CO)cc(OC)c1
36: C[C@@H]1CN([C@H](C)CO)C(=O)c2cc(NC(=O)CCCCCC(=O)Nc3ccccc3N)ccc2O[C@H]1CN(C)S(C)(=O)=O
37: CO[C@H]1CN(C)C(=O)c2cc(NC(=O)Nc3cccc(Cl)c3)ccc2OC[C@H](C)N(C)C[C@H]1C
38: C[C@@H]1CN([C@@H](C)CO)C(=O)c2c(c3ccccc3n2C)-c2ccccc2CO[C@H]1CN(C)S(=O)(=O)c1cccc(C#N)c1
39: C[C@H]1CN([C@@H](C)CO)C(=O)c2cccc(NC(=O)C3CCOCC3)c2O[C@@H]1CN(C)S(=O)(=O)c1ccccc1
40: O=C(C[C@@H]1C=C[C@H](NC(=O)CN2CCOCC2)[C@H](CO)O1)NCCc1ccccc1
screen / no.	33	34	35	36	37	38	39	40
AF4-AF9 inh	-1.1	-2.2	-1.1	-3.0	5.0	0.0	-2.1	0.1
rRNA inh HTS OD600	-10.7	-2.3	1.1	0.6	-6.6	-4.3	6.0	2.4
rRNA inh HTS RFP	0.8	-1.5	-3.0	0.4	5.3	-5.2	-1.4	-1.4
rRNA inh HTS	-1.2	-0.2	-0.7	0.2	-1.8	0.1	2.5	-3.7

High-throughput results deposited in PubChem BioAssay by Broad Institute.
